Source: PubChem BioAssay
Rango release inh – prevents RanGTP from dissociating the Rango-importin beta complex. O95149+P62826. Biochemical FRET Rango-importin beta, RanGTP-induced dissociation. Potency, µM (titrated, usually from 46.1 µM), inactives show at the top dose activity change, negative = inhibition. hit rate 0.071% among 340,000. AID 540253; active means falling FRET ratio curve, often poorly fitted, with flat reads before Ran was added; inconclusive means other falling curves, or compound fluorescence or quenching; inactive means flat or rising ratio curve;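 further: potency means the concentration at half of the fitted maximal effect; % of control where 0% means no effect; nearly all actives have a fitted effect of over 45% in size; -100% = wells without RanGTP and RCC1; the record marks most hits as doubtful in a second field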
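Compounds sat 5 min at room temperature with 0.1 uM Rango biosensor plus 0.25 uM importin beta, then FRET pre-read. RanGTP-RCC1 (0.6 uM Ran, 2mM GTP, 0.2 uM RCC1) added for 45 min, and the CFP/YFP post-read measured blocked complex dissociation.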
Rango complex inh – inhibitors of Rango-importin beta complex formation; Rango CFP/YFP FRET sensor + importin beta, 45 min; hit rate 0.031% among 340,000; Potency, µM (titrated, usually from 92.2 µM), for inactives: at the highest dose inhibition of complex formation; active = rising FRET ratio curve, often small or poorly fitted; inconclusive = mostly compound fluorescence or quenching in the first reads; inactive = flat curves in all reads;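 further: potency means the concentration at half of the fitted maximal effect; 0% = DMSO wells and 100% = buffer wells lacking importin beta; nearly all actives have a fitted effect of over 15% in size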
Target sequence (Q14974 whole entry, looked up): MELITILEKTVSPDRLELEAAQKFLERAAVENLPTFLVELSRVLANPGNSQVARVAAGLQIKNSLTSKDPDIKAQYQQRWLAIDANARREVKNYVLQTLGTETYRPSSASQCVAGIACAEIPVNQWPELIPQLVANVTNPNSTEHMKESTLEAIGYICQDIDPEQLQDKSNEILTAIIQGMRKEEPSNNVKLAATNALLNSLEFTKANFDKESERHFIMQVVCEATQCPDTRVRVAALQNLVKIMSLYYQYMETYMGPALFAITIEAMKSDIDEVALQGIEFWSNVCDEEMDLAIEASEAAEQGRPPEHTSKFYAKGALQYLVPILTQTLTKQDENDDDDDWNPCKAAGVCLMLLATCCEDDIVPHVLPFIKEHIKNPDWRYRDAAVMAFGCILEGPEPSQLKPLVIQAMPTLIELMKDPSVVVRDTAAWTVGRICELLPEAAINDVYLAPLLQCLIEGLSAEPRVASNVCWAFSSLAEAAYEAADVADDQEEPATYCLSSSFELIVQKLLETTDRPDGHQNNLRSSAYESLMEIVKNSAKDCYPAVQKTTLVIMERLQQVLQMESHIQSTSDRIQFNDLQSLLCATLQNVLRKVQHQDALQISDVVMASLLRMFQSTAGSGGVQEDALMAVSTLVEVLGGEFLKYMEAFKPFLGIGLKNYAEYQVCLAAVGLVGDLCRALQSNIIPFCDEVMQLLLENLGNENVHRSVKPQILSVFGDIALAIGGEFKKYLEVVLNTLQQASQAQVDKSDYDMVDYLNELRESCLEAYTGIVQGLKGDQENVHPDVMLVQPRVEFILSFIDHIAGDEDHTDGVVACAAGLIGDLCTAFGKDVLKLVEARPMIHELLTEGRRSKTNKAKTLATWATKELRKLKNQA
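FRET biosensor Rango (snurportin 1 IBB between N-terminal EYFP and C-terminal Cerulean), 50 nM in PBS/1 mM DTT/0.02% Tween-20/0.1% BSA, preincubated 5 min RT with compound; 0.125 microM importin beta added, 45 min RT, CFP/YFP FRET ratio read.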
miR-21 FLuc – miR-21 reporter, rising signal; HeLa miR-21 FLuc reporter, luciferase, 48 h; Potency, µM (highest dose often 38.3 µM), for inactives: at the highest dose reporter change, positive = more light; 340,000 tested, under 10 active; active = well fitted rising curve with a large enough effect; inconclusive = small, poorly fitted or top-dose-only effect; inactive = no such curve, though single readings can be large or run the other way;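 further: % of control where 0% means no effect; miR-21 action dims this reporter so a rising signal means less miR-21 action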
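HeLa miR-21-FLuc reporter line, endogenous miR-21; 2000 cells/well in DMEM/10% FBS; compound titration up to ~40uM final, 48 h, 37 degree Celsius; luciferase detection reagent, 15 min lysis, CCD luminescence.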
GLA inh pH 4.5 – alpha-galactosidase A (human) inhibition, pH 4.5; P06280; purified enzyme, 4-MU-alpha-Gal fluorescence, pH 4.5; activity change, negative = inhibition, % at 105 µM; 230,000 tested, under 10 active; AID 1467; inconclusive = small, poorly fitted or top-dose-only inhibition, or a rising curve; inactive = flat fitted curve, though single readings scatter; no compound was filed as active;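 further: 0% = full activity with enzyme and -100% = basal without enzyme; dose as in the result columns while the protocol names 77 µM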
An asterisk follows results filed as active; ? = inconclusive; . = not tested or not shown. Some of the compounds tested, so the mix of outcomes need not match the whole.

SMILES	Rango release inh	Rango complex inh	miR-21 FLuc	GLA inh pH 4.5
CSCCC1NC(=O)N(CC(=O)Nc2ccc(Cl)c(S(=O)(=O)N3CCOCC3)c2)C1=O (stereo not drawn)	-20%	-1.2%	.	.
Cc1ccc(S(=O)(=O)N2CCCC2C(=O)NCc2ccccc2F)cc1 (stereo not drawn)	15%	-1.6%	0%	.
CN(CC(=O)Nc1ccccc1F)CC(=O)Nc1ccccc1Br	4%	?	-5%	6
CCN(Cc1ccccc1)C(=O)CSc1nncn1C	-6%	1.9%	6%	-10
CCC(C(=O)OCC(=O)NC(=O)c1ccccc1OC)c1ccccc1 (stereo not drawn)	-5%	-0.9%	.	.
CCCn1c(C)cc(=O)c2cc(NC(=O)c3cnccn3)ccc21	10%	2.3%	-9%	-1
COc1cc(-c2onc3ccc(Br)cc23)cc(OC)c1OC	-23%	?	18%	0
O=c1[nH]c(-c2ccccc2)nc(CN2CCCCC2)c1O	1%	1.7%	.	.
CN(C)/C=C/C1=CC(=O)CC(C)(C)C1	-21%	3.8%	-4%	2
O=C(CSCc1c(F)cccc1F)Nc1ccccc1	-2%	-0.2%	-62%	.
COC(=O)[C@@H](NC(=O)N1CCC(Cc2ccccc2)CC1)C(C)C	-12%	-2.6%	0%	.
Cc1ccc(S(=O)(=O)N2CCN(C(=O)CCC(=O)N3CCc4ccccc43)CC2)cc1	-5%	-3.2%	1%	0
O=C(CCN1C(=O)/C(=C/c2ccccc2)SC1=S)N[C@@H](CO)Cc1ccccc1	-12%	-0.4%	25%	.
COc1ccc(OC)c(S(=O)(=O)Nc2cc3c(cc2N2CCCC2)n(C)c(=O)c(=O)n3C)c1	-3%	1.5%	0%	.
CC1=C(C(=O)OCCCCCl)C(c2cc3c(cc2Br)OCO3)NC(=O)N1 (stereo not drawn)	-12%	0.4%	-4%	.
CCOC(=O)c1c(NC(=O)CSc2nnc(Cc3csc(N)n3)n2C)sc(C)c1C	2%	0.5%	-6%	1
Cc1cccc(N2CCN(C(=O)C3CCCN(S(=O)(=O)c4c(C)noc4C)C3)CC2)c1C (stereo not drawn)	13%	-0.8%	.	.
COc1ccc(-c2c(C)oc3c(CN4CCOCC4)c(O)ccc3c2=O)cc1OC	-7%	-4.2%	-2%	.
Cc1ccc2nc(NC(=O)COC(=O)c3ccncc3)sc2c1	8%	-0.1%	-47%	-3
CC1CCC2(CC1)NC(=O)N(CC(=O)NC(=O)Nc1ccc3c(c1)OCCO3)C2=O (stereo not drawn)	1%	-0.9%	0%	-4
O=C(COC(=O)c1cc2ccccc2o1)c1ccccc1	10%	-0.7%	-10%	-1
CCOc1ccc(C(C(=O)NC2CCCC2)N(CCCO)C(=O)c2ccc(-c3ccccc3)[nH]2)cc1 (stereo not drawn)	0%	0.3%	-14%	-23
O=C(Cn1ncc(N2CCOCC2)c(Br)c1=O)c1ccc(Cl)cc1	-16%	-1.8%	-34%	8
Cc1cc(S(=O)(=O)Nc2ccc3c(c2)COC3=O)ccc1F	-5%	-1.1%	-13%	10
CC(=O)Nc1ccc(S(=O)(=O)Nc2cccc(-c3cn4cccnc4n3)c2)cc1	6%	0.3%	-5%	1

Brought forward from above: five compounds; new compounds follow.
SMILES	Rango release inh	Rango complex inh	miR-21 FLuc	GLA inh pH 4.5
O=C(COC(=O)c1cc2ccccc2o1)c1ccccc1	10%	-0.7%	-10%	-1
CCOc1ccc(C(C(=O)NC2CCCC2)N(CCCO)C(=O)c2ccc(-c3ccccc3)[nH]2)cc1 (stereo not drawn)	0%	0.3%	-14%	-23
O=C(Cn1ncc(N2CCOCC2)c(Br)c1=O)c1ccc(Cl)cc1	-16%	-1.8%	-34%	8
Cc1cc(S(=O)(=O)Nc2ccc3c(c2)COC3=O)ccc1F	-5%	-1.1%	-13%	10
CC(=O)Nc1ccc(S(=O)(=O)Nc2cccc(-c3cn4cccnc4n3)c2)cc1	6%	0.3%	-5%	1
O=C1Nc2cc(Cl)c(Cl)cc2N(O)N1c1cccc(Cl)c1	4%	-0.7%	0%	9
O=C(O)c1ccc2c(c1)C(=O)N(c1cc([N+](=O)[O-])ccn1)C2=O	8%	-1.2%	0%	.
Cn1ccnc1SCCNC(=O)C1CCC(=O)N(Cc2ccc(Cl)cc2)C1 (stereo not drawn)	-2%	0.9%	2%	.
Cc1ccc(CN2C(=O)CCC2C(=O)NCc2ccco2)cc1 (stereo not drawn)	3%	-1.1%	-5%	-9
COc1ccc(NC(=O)c2c3c(nc4ccccc24)CCC3)cc1	1%	4.4%	0%	-4
CC(C)C[C@H](NC(=O)C1CCN(S(=O)(=O)c2ccccc2)CC1)C(=O)NCc1cccnc1	5%	0.9%	0%	.
O=C(Nc1ccc(NC(=O)c2cccnc2)cc1)c1ccccc1	-7%	?	-4%	.
O=C(Cc1cccc2ccccc12)NNC(=O)Nc1cccc(Cl)c1	1%	-0.1%	13%	6
COc1ccccc1CNC(=O)c1ccc(CS(=O)(=O)c2ccccc2)o1	-21%	0.3%	0%	.
O=C(CN(Cc1ccccc1)C(=O)CCC(=O)Nc1ccccn1)NCc1ccco1	0%	4.5%	-6%	-3
CSc1ccccc1OCc1cc(C(=O)NCc2cccc(C)n2)no1	-18%	0.1%	-81%	.
Cc1ccccc1-n1c(-c2ccco2)n[nH]c1=S	-19%	-1.5%	-5%	8
Cc1ccccc1N(C(=O)Cn1nnc(-c2ccc(F)cc2)n1)C(C(=O)NC(C)(C)C)c1ccncc1 (stereo not drawn)	1%	3.2%	-13%	-13
O=C(NCCOc1ccccc1)[C@@H]1CCCN1C(=O)c1cccs1	-7%	12%	.	.
COc1cccc(-c2ccc(C#N)c(OC(=O)c3c(Cl)cccc3Cl)n2)c1	-4%	-1.5%	-3%	-4
CC1(C)CC(=O)C=C(c2ccc(-c3ccccc3)cc2)C1	15%	-4.6%	.	.
CSCCC(NC(=O)CCN1C(=O)c2ccccc2C1=O)C(=O)O (stereo not drawn)	-9%	-9.7%	-4%	2
CSC1=NC2(CC(c3ccccc3)Oc3cc(O)ccc32)CC(C)(C)N1 (stereo not drawn)	2%	-2.0%	0%	-10
CCn1c(SCC#N)nc2ccccc2c1=O	-12%	-3.2%	-10%	5
C/C(CC(=O)Nc1ccc(Cl)cc1Cl)=N\NC(=O)c1ccncc1	23%	-0.7%	6%	-11
CC(=O)c1cccc(NC(=O)COc2ccc(S(=O)(=O)N3CCOCC3)cc2)c1	1%	4.5%	2%	.
CCOc1ccc(NC(=O)CC(NC(C)=O)c2ccccc2)cc1S(=O)(=O)N1CCCC1 (stereo not drawn)	3%	-0.3%	.	.
COc1cccc(N2CCN(C(=O)c3ccccc3SCC(=O)NCc3ccco3)CC2)c1	-6%	?	.	.
Cc1ccccc1C(=O)OCC(=O)N(C)c1c(N)n(Cc2ccccc2)c(=O)[nH]c1=O	12%	-2.2%	.	.
Cc1cc(C(=O)CSc2nnc(-c3ccccc3)n2-c2ccccc2)c(C)n1-c1ncn[nH]1	2%	-5.6%	0%	1

(cont.)
SMILES	Rango release inh	Rango complex inh	miR-21 FLuc	GLA inh pH 4.5
O=C(N/N=C/c1ccc(Br)cc1)c1ccccc1-n1cccc1	11%	-2.2%	13%	-5
Cn1cccc1C(=O)OCC(=O)N1CCN(c2ccccc2)CC1	9%	-5.9%	.	.
CC1Sc2ccc(S(=O)(=O)CCC(=O)NC3CCCCCC3)cc2NC1=O (stereo not drawn)	17%	4.3%	14%	.
CCOC(=O)CSc1nc2sc3c(c2c(=O)n1-c1ccc(OCC)cc1)CCN(C)C3	5%	0.3%	0%	.
O=C(CN1CCN(S(=O)(=O)/C=C/c2ccccc2)CC1)Nc1ccccc1N1CCOCC1	-9%	2.8%	4%	-5
O=C(NCCCCC(NC(=O)c1ccc([N+](=O)[O-])cc1)C(=O)O)c1ccc([N+](=O)[O-])cc1 (stereo not drawn)	-5%	-2.8%	-1%	-4
O=C1CC(C(=O)Nc2cccc3ccccc23)C2(CCCC2)O1 (stereo not drawn)	-13%	0.0%	-15%	-12
CSc1cccc(N/C(=N/S(=O)(=O)c2ccccc2)NN)c1	-8%	0.2%	-3%	.
CCCCOc1ccc(C(=O)NCCc2ccccc2)cc1	-11%	?	-56%	.
CC1CCC2(CC1)NC(=O)N(CC(=O)Nc1ccc(N3CCOCC3)cc1)C2=O (stereo not drawn)	19%	7.3%	-1%	-4
COc1cc(NC(=O)CSc2ccc3c(c2)OCCO3)cc(OC)c1OC	4%	-5.8%	7%	-1
O=C(c1cccs1)N1CCC(C(=O)N2CCN(Cc3ccc4c(c3)OCO4)CC2)CC1	-5%	-0.3%	0%	0
Cc1c(OC(C)C(=O)NCC2CCC(C(=O)O)CC2)ccc2c3c(c(=O)oc12)CCCC3 (stereo not drawn)	0%	0.8%	-3%	.
COc1ccc2cc(CN(Cc3cccnc3)S(=O)(=O)c3ccccc3)c(=O)[nH]c2c1	-3%	-0.3%	-4%	-4
COc1ccc(NS(=O)(=O)c2ccc3c(c2)NC(=O)CO3)cc1	3%	2.8%	-2%	0
COC(=O)c1ccc(N/C=C\C(=O)c2ccc3c(c2)OCO3)cc1	-6%	-0.2%	-3%	-4
COc1ccc(C(=O)NNC2=NS(=O)(=O)c3ccccc32)cc1OC	-3%	7.3%	2%	.
COc1ccc(S(=O)(=O)N2CCN(Cc3ccccc3)CC2)c(C)c1	9%	2.3%	-9%	.
CC(=O)Nc1ccc(S(=O)(=O)Nc2nc3ccccc3nc2Nc2ccc(O)c(C(=O)O)c2)cc1	?	?	2%	.
FC(F)Oc1ccc(NC(=S)NC2CCCCCCC2)cc1	-10%	-2.4%	4%	.
O=C(Nc1ccccc1)NC1(C(=O)N2CCN(c3ncccn3)CC2)CCCCC1	-1%	-0.7%	0%	-2
CCc1ccc(N2CC(C(=O)OCc3csc(CC(=O)Nc4ccccc4C)n3)CC2=O)cc1 (stereo not drawn)	19%	-4.5%	.	.
CCCCC(=O)Nc1nn(CC(C)C)c2nc3ccccc3cc12	?	?	-6%	5
CN(CC(=O)NCCCc1ccccc1)Cc1ccc(Br)cc1	-2%	0.4%	-4%	.
O=C1/C(=C\c2c(NCCOCCO)nc3ccccn3c2=O)SC(=S)N1Cc1ccco1	?	16%	-9%	.

(further entries)
SMILES	Rango release inh	Rango complex inh	miR-21 FLuc	GLA inh pH 4.5
COc1ccc(CCNC(=O)c2cccnc2)cc1	-9%	2.2%	-4%	-8
CCN1CCc2nc(N)sc2C1	5%	2.2%	-1%	-8
CCCS(=O)(=O)c1c(S(=O)(=O)CCC)c2c(N)cccn2c1C(=O)OC	?	?	0%	-7
CC1=CC(=O)c2c(O)ccc(O)c2C1=O	.	.	6%	-8
Cc1cccc(Nc2ccccc2C(=O)NCc2ccco2)c1C	5%	-4.3%	12%	-2
O=C(Nc1sc2c(c1C(=O)N1CCOCC1)CCCCC2)c1cccnc1	-13%	3.3%	-5%	0
Cc1ccc(CNC(=O)C2CC(c3ccccc3F)=NO2)cc1 (stereo not drawn)	12%	1.6%	29%	-5
COc1ccc(C(=O)NC(=C(Cl)Cl)S(=O)(=O)c2ccc(C)cc2)cc1	11%	6.4%	0%	.
CCOC(=O)c1c(NC(=O)CSc2nnc(C)s2)sc2c1CCN(C)C2	?	?	-4%	-3
Cc1ccc(NC(=O)c2cc(S(=O)(=O)Nc3ccc(C)cc3)cs2)cc1	-1%	2.2%	.	.
COCCn1c(-c2ccccc2Cl)nc2c(c(=O)c3ccccc3n2C)c1=O	16%	-1.2%	-3%	-6
COc1ccc2c(c1)CC/C(=C/c1ccco1)C2=O	-9%	-1.0%	-69%	-7
Cc1cccc(Oc2cc(N)cc([N+](=O)[O-])c2)c1	15%	-5.6%	-3%	3
COc1ccccc1-c1cc(C(=O)N2CCCC2)no1	-14%	2.2%	-82%	.
O=C(COC(=O)COc1ccc(Cl)cc1Br)NC1CC1	-15%	3.9%	.	.
COc1cc2c3nnc(-c4ccc(F)cc4)c-3cn(Cc3ccccc3F)c2cc1OC	?	?	14%	-5
CC(Oc1ccc(Br)cc1Br)C(=O)Nc1cccnc1 (stereo not drawn)	-1%	-1.6%	-2%	.
COc1cccc2cccc(/C=N/n3cnnc3)c12	-13%	6.0%	-10%	-4
